D2 ag – activates the human D2 dopamine receptor; P14416; DiscoveRx PathHunter D2 beta-arrestin, luminescence, 90 min; 100% = 57 uM dopamine signal; activation, % (test concentration not listed); 360,000 tested, 0.084% active; AID 624465; in the data active = activation above about 40%; inconclusive = about 15% to 40%; inactive = below about 15%; further: compound concentration not given in the record; the text of the record calls up to 30% inactive
Target sequence (P14416 whole entry, looked up): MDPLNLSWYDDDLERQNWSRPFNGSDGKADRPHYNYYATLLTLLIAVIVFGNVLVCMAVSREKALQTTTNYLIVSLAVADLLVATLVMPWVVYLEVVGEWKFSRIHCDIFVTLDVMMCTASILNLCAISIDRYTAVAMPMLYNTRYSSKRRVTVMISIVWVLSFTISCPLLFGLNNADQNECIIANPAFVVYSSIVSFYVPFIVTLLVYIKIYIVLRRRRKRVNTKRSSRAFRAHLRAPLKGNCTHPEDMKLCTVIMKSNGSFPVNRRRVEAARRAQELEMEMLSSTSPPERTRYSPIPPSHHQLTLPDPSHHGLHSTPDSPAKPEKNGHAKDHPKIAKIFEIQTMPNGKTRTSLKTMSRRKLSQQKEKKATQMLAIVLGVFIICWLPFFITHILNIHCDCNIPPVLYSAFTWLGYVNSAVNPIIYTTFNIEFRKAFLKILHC
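Agonist mode: compounds alone added to overnight-plated D2 PathHunter cells for 90 min at 37 C, with 57 uM final dopamine (EC100) defining full response. Beta-arrestin recruitment detected by chemiluminescent reagent, read after 1 h at ambient temperature.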
Sfp PPTase inh – blocks B. subtilis Sfp PPTase activity; Biochemical Sfp PPTase activity, qHTS; 310,000 tested, 3.5% active; Q9F4F7; Potency, µM, inactives show max response, negative = inhibition, usual class: inhibitors; active means well fitted inhibition curve with a large enough effect; inconclusive means small, poorly fitted or top-dose-only effect, or another doubt; inactive means no such curve, though single readings can be large or run the other way;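 further: the enzyme is Sfp with the accession as filed and its product quenches rhodamine fluorescence; potency means the concentration at half of the fitted maximal effect; 0% = enzyme reaction without inhibitor and -100% = no enzyme wells; top concentration of the series not given in the record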
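Fluorescence-quenching assay with 15 nM Sfp, 5 uM rhodamine-CoA and 12.5 uM BHQ-2-labelled ybbR peptide in pH 7.6 Hepes/MgCl2 buffer. Enzyme was pre-incubated with compound for 15 min at room temperature. Rate was taken from the 30-min fluorescence change (525/598 nm).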
ClpP mod – qHTS Assay for Activators of ClpP; purified B. subtilis ClpP, FRET peptide cleavage, 20 min; 340,000 tested, 1.9% active; Potency, µM (top dose mostly 57.5 µM), without a hit: at the top dose activity change, negative = active; ATP-dependent Clp protease proteolytic subunit (Bacillus subtilis (strain 168)), P80244; active = well fitted falling curve with a large enough effect; inconclusive = small, poorly fitted or top-dose-only effect; inactive = no such curve, though single readings can be large or run the other way; further: potency means the concentration at half of the fitted maximal effect; the source files actives as falling curves though it sought activators and does not explain the sign; nearly all actives have a fitted effect of over 65% in size; many hits overshoot -100%
Target sequence (P80244 whole entry, looked up): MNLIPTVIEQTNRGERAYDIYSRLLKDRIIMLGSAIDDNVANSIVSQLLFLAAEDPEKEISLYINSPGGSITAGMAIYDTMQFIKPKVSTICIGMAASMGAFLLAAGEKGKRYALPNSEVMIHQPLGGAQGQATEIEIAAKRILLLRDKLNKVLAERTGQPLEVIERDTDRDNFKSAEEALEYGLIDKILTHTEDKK
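Buffer: 100 mM Tris/HCl pH8, 100 mM KCl, 0.05% low protease BSA, 2.5% glycerol, 0.01% Tween-20. ClpP 10 microg/mL final; 20 min RT; delta FRET normalized to ADEP and DMSO controls.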
PINK1 modulator – PINK1 expression modulation. PINK1 immunofluorescence, high-content cytometry, 24 h. Potency, µM (highest dose often 76.6 µM), without a hit: at the top dose activation (PINK1 increase), most hits filed as activators. 410,000 tested, 0.2% active. AID 624263; active = well fitted activation curve with a large enough effect; inconclusive = small, poorly fitted or top-dose-only effect; inactive = flat fitted curve, though single readings scatter; cell line not stated here;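 further: potency means the concentration at half of the fitted maximal effect; % of control where 0% means no effect; nearly all actives have a fitted effect of over 65% in size; a mitochondrial uncoupler was the plate control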
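Cells are seeded, rested 12 hours, then given compound at five concentrations or DMSO for 24 hours. After fixation, blocking and antibody staining, PINK1 amount and mitochondrial localization are scored; CCCP serves as control.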
gsp agonist – activates gsp, the McCune-Albright syndrome mutation; gsp mutant cells, cAMP HTRF, 30 min; control for the full effect not named in the record; Potency, µM (doses to about 76.9 µM), for the others: at the highest dose activation (cAMP increase), actives largely listed as activators; 340,000 tested, 0.13% active; AID 624287; active = well fitted activation curve with a large enough effect; inconclusive = small, poorly fitted or top-dose-only effect, or another doubt; inactive = no such curve, though single readings can be large or run the other way; cell line not stated here;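 further: phosphodiesterase inhibitor Ro 20-1724 added with compounds to block cAMP breakdown; potency means the concentration at half of the fitted maximal effect; nearly all actives have a fitted effect of over 60% in size; about a fifth of the inactives were tested at one dose only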
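Cells in DMEM/10% FBS with G418 were pretreated with compounds in DMSO plus […] (300 uM stock) for 30 min at 37C. cAMP was measured by HTRF (cAMP-d2 plus anti-cAMP antibody-K) after 30 min at room temperature.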
gsp antagonist – antagonizes gsp, the McCune-Albright syndrome mutation; gsp-mutant cells, cAMP HTRF, 30 min; control for the full effect not named in the record; Potency, µM (highest dose often 76.9 µM), for inactives: at the highest dose activity change, negative = inhibition, actives largely listed as inhibitors; 340,000 tested, 0.4% active; AID 624288; active = falling curve of any shape with a large fitted effect; inconclusive = falling curve, mostly with a smaller effect; inactive = flat or rising curve; cell line not stated here;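 further: intracellular cAMP measured with PDE inhibitor Ro 20-1724 present during compound exposure; potency means the concentration at half of the fitted maximal effect; on the % scale 0 is the no-effect control and ±100 the full control effect; nearly all actives have a fitted effect of over 65% in size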
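HTRF cAMP read-out (cAMP-d2 plus anti-cAMP antibody-K in lysis buffer, 30 min RT). Before lysis, cells are exposed to compounds with […] for 30 min at 37C in DPBS containing Ca/Mg, BSA and Tween 20.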
Menin MLL FP FL – inhibitors of human menin-MLL interaction, wild-type MLL peptide. 290,000 tested, under 10 active. Fluorescence polarization, fluorescein-MLL peptide displacement from menin. FP activity change, % at 61.4 µM. AID 1766; inconclusive = falling polarisation curve, or a change in total fluorescence; inactive = total fluorescence flat and polarisation flat or rising; no compound was filed as active; the % refers to the polarisation; negative = inhibition;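 further: % of control where 0% means no effect; inhibitors lower the polarisation; unlabelled MLL peptide was the positive control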
Starred values were filed as active, the others as inactive; ? = inconclusive; nt = not tested or not shown; [ ] = dose if it differs, or a comment. Random draw from the library. About 5.1% of those tested had a hit in this group.

SMILES | D2 ag | Sfp PPTase inh | ClpP mod | PINK1 modulator | gsp agonist | gsp antagonist | Menin MLL FP FL
Nc1ncncc1-c1ccc([N+](=O)[O-])cc1 | -0.4 | 13% | 0.4% | -1.0%[38.3 µM] | -39%[inhibitor] | 1% | 1.3
CC1(C)N=C(c2ccccc2)C(=O)N1 | -1.9 | 7% | -0.1% | 2.0% | 4% | -8% | -0.3
CN(C)c1ncc2nc(-c3ccc(F)cc3)c(=O)n(CCC#N)c2n1 | nt | 12% | nt | 4.0% | nt | nt | -15
Nc1nonc1-n1nnc(C(=O)N/N=C/c2cccc(O)c2)c1CN1CCCC1 | -0.8 | 0% | -3.3% | -0.5% | -22% | -14% | nt
COc1ccc(OC)c(NC(=S)NCc2ccccc2OC)c1 | -1.6 | 5% | nt | -1.3% | -54%[inhibitor] | -10% | -2.9
CC(C)[C@H](NC(=O)c1ccccc1Cl)C(=O)NC1CCCCCC1 | -5.6 | 26% | nt | 3.7% | 5%[15.4 µM] | 10% | -3.0
Clc1ccc(Cc2nc(-c3ccncc3)no2)cc1 | -0.4 | -2% | -0.3% | 1.7% | 0% | 9% | 4.7
CCOC(=O)c1c(-c2ccccc2)oc2ccc(O)c(CN(C)C)c12 | -6.2 | 5% | 1.7% | 9.8% | ? | 9% | 3.0
COc1ccc(S(=O)(=O)N(CC(=O)N2CCN(C)CC2)c2ccc(C)cc2)cc1Br | -7.8 | 11% | -2.1% | -0.6% | 0% | 13% | 4.3
O=S(=O)([N-]c1nc2ccccc2nc1-[n+]1ccccc1)c1ccc(F)cc1 | -1.5 | 18% | nt | 4.3% | 1%[15.4 µM] | -13% | 3.9
O=C(NCc1cccc(Cl)c1)C1CCCN(c2ncnc3c2nc2n3CCCCC2)C1 (stereo unspecified) | -2.6 | 2% | nt | -0.4% | -42%[inhibitor] | 1% | -4.8
NC(=O)CSc1ncnc2c1oc1ccccc12 | -2.3 | 24% | -11% | -0.7% | ? | ? | -2.8

The closing two compounds of the section before open the next one:
SMILES | D2 ag | Sfp PPTase inh | ClpP mod | PINK1 modulator | gsp agonist | gsp antagonist | Menin MLL FP FL
O=C(NCc1cccc(Cl)c1)C1CCCN(c2ncnc3c2nc2n3CCCCC2)C1 (stereo unspecified) | -2.6 | 2% | nt | -0.4% | -42%[inhibitor] | 1% | -4.8
NC(=O)CSc1ncnc2c1oc1ccccc12 | -2.3 | 24% | -11% | -0.7% | ? | ? | -2.8
Cn1ccnc1SCC(=O)n1c2c(c3ccccc31)CCCC2 | -4.7 | 11% | 32µM* | 1.3% | 0%[15.4 µM] | -21% | -1.4
COc1cc(C(=O)OCC(=O)NCc2ccccc2)cc(NC(=O)c2ccco2)c1OC | -0.9 | ? | -2.9% | 0.1% | 20% | 10% | 2.0
COc1cc2c(cc1OC)C(CC(=O)O)N(C(=O)CC1CCCC1)CC2 (stereo unspecified) | -2.1 | 15% | nt | 5.2% | 15% | 7% | 0.7
Cc1cc(C)c2nc3nc(C)cc(C)c3c(N)c2c1 | 1.6 | -12% | ? | -1.4% | ? | -8% | 0.0
O=C(NNC1CC(=O)N(c2cccc(Cl)c2)C1=O)c1cccnc1 (stereo unspecified) | -0.7 | -21% | -3.8% | 5.9% | -21% | 3% | 3.1
CC(C)N1C(=O)CCC1C(=O)NCCc1ccccc1 (stereo unspecified) | -0.3 | 24% | -1.2% | ? | 28% | 10% | 0.6
O=S(=O)(Nc1ccc(O)c(Sc2nc3ccccc3s2)c1)c1ccc(F)cc1 | 6.1 | 3% | 1.2% | 1.7% | 13% | -12% | -1.3
Cn1c(=O)n(C)c2cc(C(N)=O)ccc21 | -2.5 | 16% | ? | -0.3%[38.3 µM] | -7% | 5% | 1.4
CC1(Cc2ccccc2OC(F)(F)F)C(=O)Nc2cc(-c3ccccc3Cl)ccc21 (stereo unspecified) | 12 | nt | -1.5% | 0.0% | nt | nt | nt
Cc1ccc(CNn2cnnc2SCC(=O)NC(C)(C)C)cc1 | -3.6 | 17% | -0.7% | 2.8% | -28% | -16% | 2.0
CC(=O)Oc1ccc2c(C)cc(=O)oc2c1C(=O)c1ccccc1 | 2.4 | 4% | 2.2% | 1.3% | -19%[15.4 µM] | 10% | nt
O=C(O/N=C1\CCS(=O)(=O)c2sccc21)c1ccc(F)cc1 | -6.2 | 13% | 1.4% | -1.6% | -8% | 10% | 3.6
NC(=S)n1[nH]c(-c2ccc([N+](=O)[O-])cc2)c(N=Nc2ccc(Cl)cc2)c1=O | -2.9 | -18% | nt | 11µM* | ? | ? | 3.6
CNCCC=C1c2ccccc2C=Cc2ccccc21 | -8.2 | 2% | 1.6% | 0.8% | nt | 1% | -0.2[24.8 µM]
O=C(O)C1C2CCC(O2)C1C(=O)Nc1ccc(F)cc1 (stereo unspecified) | -6.9 | 4% | nt | 4.5% | 1%[15.4 µM] | 14% | -0.1
COc1ccc(C(=O)N2CCC[C@@]3(CCN(C(=O)Nc4ccccc4)C3)C2)cc1 | nt | -8% | nt | -0.8% | nt | nt | -1.4
CCc1nnc(NC(=O)c2ccc(Br)o2)s1 | 0.7 | -8% | 0.0% | -0.2% | 12%[15.4 µM] | -6% | -2.8
CCCOC(=O)c1c(NC(=O)CCC(=O)O)sc2c1CCCCC2 | -2.1 | ? | nt | 1.1% | 0% | -7% | -1.0
CCCC1NC(C(=O)O)Cc2c1[nH]c1ccccc21 (stereo unspecified) | -2.2 | -17% | -2.2% | -0.7% | 2%[15.4 µM] | 12% | -7.0
CSc1nc2ccc(NC(=O)C3CCCO3)cc2s1 (stereo unspecified) | -2.5 | 3% | 0.6% | 0.0% | -40%[inhibitor] | -6% | 1.3
Cn1c(=O)cc(OCC(=O)NCCc2ccc(Cl)cc2)c2ccccc21 | 2.2 | 12% | -2.8% | 0.0% | -108%[inhibitor] | 1% | -0.1
CCOc1ccc(NC(=O)CCC(=O)NNC(=O)COc2ccccc2C)cc1 | -5.2 | -11% | nt | 0.7% | -17%[15.4 µM] | -5% | 2.9
COc1cc(NC(=O)CCN2CCN(c3ccccc3F)CC2)cc(OC)c1 | 9.7 | 19% | -0.5% | -2.7%[38.3 µM] | 1% | -1% | 4.9
CNC(=O)CN(c1cc(OCCOC)c(Cl)cc1Cl)S(=O)(=O)c1ccc(OC)cc1 | 3.4 | 13% | nt | 4.2% | ? | 11% | -0.8

In the list so far, these have a COOH group.
SMILES | D2 ag | Sfp PPTase inh | ClpP mod | PINK1 modulator | gsp agonist | gsp antagonist | Menin MLL FP FL
COc1cc2c(cc1OC)C(CC(=O)O)N(C(=O)CC1CCCC1)CC2 (stereo unspecified) | -2.1 | 15% | nt | 5.2% | 15% | 7% | 0.7
O=C(O)C1C2CCC(O2)C1C(=O)Nc1ccc(F)cc1 (stereo unspecified) | -6.9 | 4% | nt | 4.5% | 1%[15.4 µM] | 14% | -0.1
CCCOC(=O)c1c(NC(=O)CCC(=O)O)sc2c1CCCCC2 | -2.1 | ? | nt | 1.1% | 0% | -7% | -1.0
CCCC1NC(C(=O)O)Cc2c1[nH]c1ccccc21 (stereo unspecified) | -2.2 | -17% | -2.2% | -0.7% | 2%[15.4 µM] | 12% | -7.0

Later entries:
SMILES | D2 ag | Sfp PPTase inh | ClpP mod | PINK1 modulator | gsp agonist | gsp antagonist | Menin MLL FP FL
O=C(/C=C/c1ccc(Cl)cc1)NCCc1ccccc1 | 1.4 | -1% | -0.6% | 4.8% | -50%[inhibitor] | 2% | 4.0
CC(c1nccs1)N(C)C(=O)CCc1nnc(Cc2c[nH]c3ccccc23)o1 (stereo unspecified) | -2.9 | 0% | -0.6% | -1.2% | 22% | 1% | -3.8
COC(=O)[C@]1(C)N[C@H](CN(C)C(=O)c2ccccc2)[C@@H]2C(=O)N(Cc3ccccc3)C(=O)[C@@H]21 | -1.0 | nt | -0.5% | -0.2% | nt | 11% | nt
CCCC[C@@H]1CNCCN1CCc1cc(C(F)(F)F)cc(C(F)(F)F)c1 | -1.1 | nt | 1.2% | -1.1% | 0% | 13% | nt
Cc1ccc(Cc2c(-c3cccc(Br)c3)nc3cc(C)c(Br)c(C)n23)cc1 | -5.1 | nt | 1.1% | 1.0% | nt | nt | nt
O=C(N/N=C/c1cccnc1)C1CC1(c1ccccc1)c1ccccc1 (stereo unspecified) | 3.0 | 13% | nt | 0.9% | -3%[15.4 µM] | -13% | -3.5
CCCNC(=O)CSc1nnc(-c2ccc(F)cc2)o1 | 2.2 | 24% | -1.3% | 1.5% | ? | 10% | -1.5
CC(Oc1ccc(F)cc1)C(=O)Nc1ccc(S(=O)(=O)NC2=NCCCCC2)cc1 (stereo unspecified) | -6.0 | nt | -2.2% | 1.4% | -40%[inhibitor] | 2% | nt
COc1ccc(OCC(=O)Nc2ccc(Cl)cc2)cc1 | 0.3 | 11% | nt | 1.6% | -15% | 6% | 3.0
CC(=O)Nc1ccc(S(=O)(=O)C(C#N)c2nc3ccccc3nc2NCCCO)cc1 (stereo unspecified) | -1.3 | 24% | nt | 1.4% | 14%[15.4 µM] | 10% | 2.4
Cc1ccc(/C=C/C(=O)O)cc1S(=O)(=O)NCc1ccco1 | 2.6 | 40µM* | nt | 7.4% | 19% | 0% | 10
CCc1nnc(NC(=O)CSc2ncnc3c2cnn3-c2ccc(OC)cc2)s1 | 2.4 | 8% | ? | 1.3%[38.3 µM] | 5% | 7% | -2.0
CCOC(=O)Cn1c(=O)oc2cc(S(=O)(=O)NC3CCCCC3)ccc21 | -1.9 | 6% | 1.0% | 0.9% | -67%[inhibitor] | 10% | 6.6
C=C(C)n1c(=O)[nH]c2ccccc21 | -0.3 | -4% | -0.9% | 0.6% | 19% | 12% | -0.8
OC(CNC1CCCCC1)CNC1CCCCC1 | -2.6 | ? | 2.1% | -0.7% | -11% | 7% | -8.3
C=CCC1(N(C(C)=O)c2ccccc2C)CCCCC1 | 3.2 | ? | nt | 4.8% | -13%[15.4 µM] | -30% | -2.4

Screening results deposited in PubChem by National Center for Advancing Translational Sciences (NCATS).
